KCNQ2 enhance = potentiators of rat KCNQ2 potassium channel. O88943. CHO-K1 KCNQ2, FluxOR thallium flux fluorescence; hits give high values. B-score at 10 µM. hit rate 0.54% among 310,000;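 active = fluorescence ratio B-score at least 3 SD of library B-scores, with initial fluorescence B-score within 3 SD, cut at about 5.3 in these data; same plate scores as AID 2156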;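 also: B-score of peak minus minimum over baseline fluorescence ratio after K+ and Tl+ stimulus; positive B-score means potentiation of KCNQ2 with more thallium influx and brighter signal; only the inactives scoring about 0 or higher are listed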
Target sequence (O88943 whole entry, looked up): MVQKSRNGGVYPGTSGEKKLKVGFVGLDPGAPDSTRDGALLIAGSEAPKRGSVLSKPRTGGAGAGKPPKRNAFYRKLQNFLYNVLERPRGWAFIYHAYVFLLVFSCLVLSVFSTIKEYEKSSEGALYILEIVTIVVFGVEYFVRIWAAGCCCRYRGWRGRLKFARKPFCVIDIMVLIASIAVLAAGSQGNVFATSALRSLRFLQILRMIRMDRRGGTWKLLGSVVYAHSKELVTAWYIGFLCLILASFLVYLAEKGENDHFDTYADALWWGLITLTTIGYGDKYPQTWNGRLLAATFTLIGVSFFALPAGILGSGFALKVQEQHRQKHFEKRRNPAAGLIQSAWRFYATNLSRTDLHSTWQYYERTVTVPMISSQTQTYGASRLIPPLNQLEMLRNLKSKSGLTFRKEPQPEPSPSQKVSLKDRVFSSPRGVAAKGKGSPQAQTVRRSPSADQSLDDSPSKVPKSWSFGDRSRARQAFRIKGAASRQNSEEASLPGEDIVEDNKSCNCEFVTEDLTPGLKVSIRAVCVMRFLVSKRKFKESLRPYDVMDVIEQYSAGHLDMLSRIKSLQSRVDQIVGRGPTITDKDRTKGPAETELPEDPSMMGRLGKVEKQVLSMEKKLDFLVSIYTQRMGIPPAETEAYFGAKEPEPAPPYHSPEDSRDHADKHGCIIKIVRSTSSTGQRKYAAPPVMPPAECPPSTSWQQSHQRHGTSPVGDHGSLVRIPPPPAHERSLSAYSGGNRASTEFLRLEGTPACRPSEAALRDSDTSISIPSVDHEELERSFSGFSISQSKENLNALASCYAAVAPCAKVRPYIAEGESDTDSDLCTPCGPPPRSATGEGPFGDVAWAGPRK
KCNQ2 enhance baseline = further read-out of KCNQ2 enhance, marked with its call; B-score; compound at 10 µM; measured here: initial fluorescence intensity artifact check;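 brightness before thallium and not channel activity; 0 = typical well and far values either way flag optical interference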
Numbers without * were called inactive.

SMILES	KCNQ2 enhance	KCNQ2 enhance baseline
CC12CC3CC(C)(C1)CC(CN1CCOCC1)(C3)C2	0.05	0.06
O=C(OCC(=O)N1CCc2ccccc21)c1ccc(Cl)nc1	0.75	0.29
COc1cc(C2c3c(oc4ccccc4c3=O)C(=O)N2Cc2ccncc2)ccc1O (configuration not stated)	1.4	-1.3
CCCN(CCC)CCCNC(=S)Nc1ccc2nc3n(c(=O)c2c1)CCCCC3	0.03	0.22
COC(=O)CSc1nc2sccc2c(=O)n1-c1ccccc1	0.17	0.22
O=CN(CCN(C=O)CN1CCCCC1)CN1CCCCC1	1.4	0.8
CCOc1cc(N2CCOCC2)c(OCC)cc1NC(=O)COC(=O)COc1ccc(C#N)cc1	0.56	0.07
Cc1ccc(NC(=S)NC(=O)Cc2ccccc2)c(O)c1	1.5	-0.36
Cc1ccc(NC(=O)N2CCCC2C(=O)NCc2ccc3c(c2)OCO3)cc1 (configuration not stated)	2	-0.03
CC1=C(C(=O)NC(C)C)C2(CCC(C)CC2)OC1=O (configuration not stated)	0.8	-1.2
CCCCC(OC(=O)c1ccco1)C(=O)NCc1ccc(C)cc1 (configuration not stated)	0.09	0.39
N#Cc1c(-c2ccccc2)nc(SCC(=O)Nc2nnc(C(F)(F)F)s2)[nH]c1=O	1.8	0.75
CC1(C)c2[nH]c3ccccc3c2C[C@H]2C(=O)N(N)CC(=O)N21	1.9	-1.6
CCOC(=O)c1c(C)[nH]c(C(=O)/C(C#N)=C/c2ccc(OC(F)F)c(OC)c2)c1C	1.5	-1.4
O=C(O)c1ccc(Sc2nnnn2-c2ccccc2)c([N+](=O)[O-])c1	0.25	-0.95
CCCCNC(=O)C(=O)NC(C)CCc1ccccc1 (configuration not stated)	0.77	-0.03
CCN1CCCC1CNC(=O)c1cc2c(OC)cccc2[nH]1 (configuration not stated)	0.56	-0.01
CCCOC(=O)CSc1nnc(-c2ccc(Cl)cc2Cl)o1	0.07	0.15
CCN(CC)CCN(C(=O)c1ccc(Br)s1)c1nc2cc3c(cc2s1)OCCO3	2	-0.68
COc1ccc(/C=N/NC(=O)c2ccn[nH]2)cc1COc1ccc(Cl)cc1Cl	3.5	-2.3
Cc1cc(C)c(C(=O)CSc2nnc(C)c(=O)[nH]2)cc1C	0.54	-0.07
O=C(O)CSc1nc(-c2ccc(Cl)cc2)nc2c1oc1ccccc12	1.1	-0.67
O=C(Cn1cc(S(=O)(=O)Cc2cccc(F)c2)c2ccccc21)N1CCOCC1	0.42	-1.5
COc1cc2c(cc1NC(=O)CCCCCN1C(=O)CCC1=O)oc1ccccc12	0.98	-1.7
Cc1cc(-c2nnc(SCC(=O)Nc3ccccc3C(F)(F)F)n2N)n[nH]1	0.44	0.48
Cc1ccc(NS(=O)(=O)c2ccc(-c3ccc(=O)[nH]n3)o2)cc1	1.8	0.02
O=C(NNC(=O)c1ccccc1[N+](=O)[O-])c1ccc(NC(=O)c2ccccc2)cc1	0.59	0.01
O=C(O)CCC(=O)Nc1ccc(Br)cn1	0.67	-1.7
O=C(Nc1ccc2c(c1)OCO2)C1CC(=O)N(c2ccc3c(c2)OCCO3)C1 (configuration not stated)	0.61	2.5
CCOC(=O)C1CCCN(C(=O)COc2ccccc2O)C1 (configuration not stated)	0.06	0.32
O=C(CN1C(=O)CCSc2ccccc21)Nc1ccc2c(c1)OCCO2	0.63	-1.5
CCOc1ccc(N/C(SC)=C(/C#N)C(N)=O)cc1	0.68	-0.47
O=C(CSc1nc2c(sc3ccccc32)c(=O)n1CCCN1CCCC1)NCc1ccccc1	0.05	-0.99
COC(=O)c1sccc1NC(=O)Nc1ccc(OC)cc1OC	0.3	1.1
CCOC(=O)N1CCN(C(=O)c2ccc(OC)c(OC)c2)CC1	0.58	0.38
CC(NC(=O)C1CCC1)c1ccc(Cl)cc1 (configuration not stated)	1.7	-1.3
CN1CCN(CC(=O)NC23CC4CC(CC(C4)C2)C3)CC1	0.35	0.23
COc1cccc(-n2c(Cc3cc(=O)[nH]c(=O)[nH]3)nnc2SC(C)C)c1	0.21	0.78
O=C(Cc1cccc2ccccc12)N/N=C/c1ccc2cccc(O)c2n1	0.37	-0.85
CCOc1ccc(N(C(C)=O)c2nc(C)cc(C)c2C#N)cc1	0.26	1.6
O=S(=O)(Nc1nc2ccccc2s1)c1ccc(Cl)s1	0.5	0.98
COC(=O)c1ccc(NC(=O)c2ccccc2NS(C)(=O)=O)cc1	0.99	-1.2
O=C(CCC(=O)N1CCOCC1)NCCc1ccc(Cl)cc1Cl	0.54	0.14
CC(=O)Nc1ccc(NC(=O)C2CC(=O)Nc3ncnn32)cc1 (configuration not stated)	0.57	-0.23
CCc1ccc(NC(=O)c2cccc(NC3=NC4CS(=O)(=O)CC4S3)c2)cc1 (configuration not stated)	0.61	-2.7
COc1ccc(-c2c(N)nnc3c2[nH]c2ccccc23)cc1OC	0.01	-0.93
CCN1CCCC(Sc2nc3c([nH]2)c(=S)n(C)c(=O)n3C)C1 (configuration not stated)	0.75	-0.05
COc1ccc(CCNC(=O)Nc2cccc([N+](=O)[O-])c2)cc1	0.88	-1.2
CCOCCCNc1ncnc2c1nc1n2CCCC1	0.83	1.4
O=C(CCc1ccc(S(=O)(=O)N2CCOCC2)cc1)Oc1ccccc1	0.02	0.76
CCOc1ncccc1C(=O)OCC(=O)Nc1cc(S(=O)(=O)N2CCOCC2)ccc1C	0.44	0.01
CC(=O)Nc1ccc(C(=O)OCc2ccc(Cl)cc2)cc1	0.01	1.7
CCSc1sccc1C1C(C#N)=C(N)N(c2cccnc2)C2=C1C(=O)CCC2 (configuration not stated)	0.43	-3.3
COc1ccc(CCCc2nnc(SCC(=O)NN)o2)c(C)c1	1.8	0
Cc1ccc2c(CC(=O)OCc3nc(N)nc(Nc4ccccc4C)n3)coc2c1	11*	0.02*
NC(=O)N/N=C/c1ccccc1OC(=O)c1cc2ccccc2oc1=O	2.2	0.27
COc1cc(NS(=O)(=O)c2ccc3[nH]c(=O)[nH]c3c2)cc(OC)c1	0.64	-0.53
CSc1nc(=S)n(-c2ccc([N+](=O)[O-])cc2)c(C)c1C(C)=O	0.52	-0.12
COCCC(=O)N1CCC(Oc2ccc(C(=O)NCc3cccc(C)n3)cc2)CC1	0.06	1.6
CCc1ccc(C(=O)NNc2cc(Cl)ccc2Cl)cc1	3.1	-0.58

Continued.
SMILES	KCNQ2 enhance	KCNQ2 enhance baseline
Cc1ccc(S(=O)(=O)NCC(=O)NCc2cc(=O)n(C)c(=O)n2C)cc1C	0.3	-0.84
CN(CC(=O)NC1CCCc2ccccc21)S(=O)(=O)c1ccc2c(c1)c(=O)n(C)c(=O)n2C (configuration not stated)	0.04	-0.05
CCCc1cc(=O)oc2cc(C)cc(OC(C)C(=O)N[C@@H](Cc3c[nH]c4ccccc34)C(=O)O)c12 (some centres not stated)	9.7*	-1.5*
CCCN(CCC)C(=O)CSc1ncccc1C(=O)O	0.1	-1
O=C(CSc1cn(CCNC(=O)c2cccs2)c2ccccc12)NC1CCCCC1	1.1	0.17
CC(C1CC1)N(C(=O)NC1CCS(=O)(=O)C1)c1ccccc1 (configuration not stated)	0.43	0.09
Cc1ccc(-n2[nH]c(C)c(C=Nc3ccc(S(=O)(=O)Nc4nc(C)cc(C)n4)cc3)c2=O)c(C)c1	0.11	-0.18
Cc1cnc(NS(=O)(=O)c2ccc(Cl)cc2)c(Br)c1	1.3	-0.06
CCc1ccc(-c2csc(NC(=O)C3=NN(c4ccccc4)C(=O)CC3)n2)cc1	1.9	-0.86
COC(C[C@@H]1O[C@@H]1C(=O)COCc1ccccc1)OC	0.73	-0.89
CC1CCC(=NNC(=O)Cc2ccccc2)CC1 (configuration not stated)	0.46	0.15
NS(=O)(=O)c1ccc(NC(=S)N2CCN(c3ccccc3)CC2)cc1	0.49	-2.3
Cc1ccc(NC(=O)N2CCC(c3nc4c(nnn4Cc4cccc(Cl)c4)c(=O)[nH]3)CC2)cc1	0.15	-0.02
O=C(COC(=O)c1cccc(O)c1)c1ccccc1	1.5	1.9
O=C(c1cc2cc(Br)ccc2o1)N1CCCC1	0.01	0.64
Cc1ccc(CNC(=O)CCS(=O)(=O)Cc2ccc(C)cc2)cc1	1.6	-0.11
Cc1c(C)c2c(OCC(=O)N3CCC(C(=O)NCC(C)C)CC3)cc3c(c2oc1=O)CCC(C)(C)O3	0.2	0
C/C(=N\NC(=O)COc1cccc(Cl)c1)c1ccc2c(c1)OCCO2	0.14	1.1
CCN(c1ccc(C)c(C)c1)S(=O)(=O)c1ccc2c(c1)CCN2C(=O)CCC(=O)O	0.87	-2.1
COc1ccccc1N1CCN(C(=O)c2sc3nc(-c4ccc(F)cc4)cn3c2C)CC1	0.01	2.8
Cc1ccc(Nc2nc3ccccc3o2)cc1F	0.68	1
C=CCN1C(=O)CN=C1NCc1ccccc1	0.25	0.63
CCc1nnc(NC(=O)C2COc3ccccc3O2)s1 (configuration not stated)	2.9	-1.3
COc1ccc(CCNC(=O)c2ccncc2)cc1OC	0.99	-1.1
Cc1noc(C)c1COC(=O)COc1ccc(C#N)cc1	3	-4.2
CC(C)(C(=O)c1ccccc1)/[N+]([O-])=C/c1ccccc1F	0.08	-0.33
CCC1CCCCN1S(=O)(=O)c1ccc(S(=O)(=O)N(Cc2ccccn2)CC2CCCO2)cc1 (configuration not stated)	1.9	-1.2
Cc1cccc(NC(=S)NNC(=O)c2ccccc2OC(F)F)c1	0.29	-0.19
CN1c2ccccc2N(C)C1(C)c1cccc2ccccc12	0.6	0.91
COc1ccc(Cn2c(SCc3ccccc3C)nc3cc(OC)c(OC)cc3c2=N)cc1	1.1	-0.68

Sorted by SMILES length (low to high): part of the list above
SMILES	KCNQ2 enhance	KCNQ2 enhance baseline
C=CCN1C(=O)CN=C1NCc1ccccc1	0.25	0.63
CCc1nnc(NC(=O)C2COc3ccccc3O2)s1 (configuration not stated)	2.9	-1.3
Cc1noc(C)c1COC(=O)COc1ccc(C#N)cc1	3	-4.2
Cc1ccc(CNC(=O)CCS(=O)(=O)Cc2ccc(C)cc2)cc1	1.6	-0.11
C/C(=N\NC(=O)COc1cccc(Cl)c1)c1ccc2c(c1)OCCO2	0.14	1.1
COc1ccccc1N1CCN(C(=O)c2sc3nc(-c4ccc(F)cc4)cn3c2C)CC1	0.01	2.8
CCC1CCCCN1S(=O)(=O)c1ccc(S(=O)(=O)N(Cc2ccccn2)CC2CCCO2)cc1 (configuration not stated)	1.9	-1.2

Next results.
SMILES	KCNQ2 enhance	KCNQ2 enhance baseline
Cn1c(=O)c([N+](=O)[O-])c(NCc2ccccc2Cl)c2ccccc21	0.37	0.91
O=C(NCc1cn2ccccc2n1)c1ccco1	0.06	-1.4
CCCOc1ccc(-c2c(C(=O)N/N=C(\C)c3ccncc3)nnn2-c2nonc2N)cc1	1.1	0.79
COC(=O)c1cccc(NC(=O)c2ccc(S(=O)(=O)N3CCN(C)CC3)cc2)c1	1.8	0.67
C=CCN(C(=O)CCC(=O)Nc1cc(C)on1)C(C(=O)NC1CCCC1)c1cccnc1 (configuration not stated)	0.38	-1.5
COc1c(Br)cc(Br)cc1/C=N/n1c(C)nnc1C	1.2	0.24
CC(=O)NCC1=C(NC(C)=O)C2CC1C(C)(C)C2C (configuration not stated)	1	0.46
CCOc1cc(C(=O)NCCCNC(=O)c2cc(OCC)c(OCC)c(OCC)c2)cc(OCC)c1OCC	1	1.1
CCOC(=O)Cc1csc(NC(=O)/C=C/c2ccc(Br)o2)n1	1	-1.1
Cc1cccc(-c2noc(CCCC(=O)NCC3CCCO3)n2)c1 (configuration not stated)	1.1	-0.58
CC(C)n1c(SCC(=O)Nc2nc3ccccc3s2)nc2c1c(=O)n(C)c(=O)n2C	0.96	-0.41
CC(=O)c1ccc(NC(=O)CSCCO)cc1	0.16	-0.3
CCN1CCN(c2nc3ccccc3nc2C(C#N)C(=O)OCc2ccccc2)CC1 (configuration not stated)	0.23	1
Cc1nc2cc(F)ccc2n1C1CCN(C(=O)c2ccc(F)cc2F)CC1	0.02	0.87
O=C(NC1CCSC1=O)c1ccc(Oc2cccc(C(F)(F)F)c2)nc1 (configuration not stated)	0.03	-1.6
O=C(N/N=C/c1ccco1)c1cccc([N+](=O)[O-])c1	0.01	-0.43
NC(=O)CC(NC(=O)c1ccccc1)c1ccc(NCCN2CCCCC2)c([N+](=O)[O-])c1 (configuration not stated)	0.3	1.2
COc1ccc(/C=C2\SC(=NCc3ccccc3)NC2=O)cc1	0.55	-1
Cc1ccc(NC(=O)COC(=O)/C=C/c2ccccc2)cc1S(=O)(=O)N1CCOCC1	0.18	0
N#Cc1ccc(C23CC4CC(CC(C4)C2)C3)[nH]c1=O	0.68	0.41
COc1cc(NC(=O)COC(=O)CSc2ccc3ccccc3c2)c(C)cc1[N+](=O)[O-]	0.32	-1.9
CN(c1ccc(OCC(=O)N2CCCCC2)cc1)S(=O)(=O)c1cccs1	1.8	-0.96
COc1ccc(NS(=O)(=O)c2cc(NC(=O)CC(=O)c3ccc([N+](=O)[O-])cc3)ccc2C)cc1	0.66	-1.1
CSCc1ccc(C(=O)N2CCCC(Nc3ccc4c(c3)OCCO4)C2)o1 (configuration not stated)	0.77	0.25
COc1c(O)cc2c(c1O)C(=O)CC(c1ccccc1)O2 (configuration not stated)	0.21	1.5
Cc1ccc(NC(=O)NCC(c2cccnc2)N2CCOCC2)cc1 (configuration not stated)	1.6	0.29

Of the compounds above, these have bromine:
SMILES	KCNQ2 enhance	KCNQ2 enhance baseline
CCN(CC)CCN(C(=O)c1ccc(Br)s1)c1nc2cc3c(cc2s1)OCCO3	2	-0.68
O=C(O)CCC(=O)Nc1ccc(Br)cn1	0.67	-1.7
Cc1cnc(NS(=O)(=O)c2ccc(Cl)cc2)c(Br)c1	1.3	-0.06
O=C(c1cc2cc(Br)ccc2o1)N1CCCC1	0.01	0.64
COc1c(Br)cc(Br)cc1/C=N/n1c(C)nnc1C	1.2	0.24
CCOC(=O)Cc1csc(NC(=O)/C=C/c2ccc(Br)o2)n1	1	-1.1

Source: PubChem BioAssay (Johns Hopkins Ion Channel Center)

A portion of the library; the hit share may differ from the screen's.
